Six1-Eya2 inh = inhibitors of human Six1/Eya2 interaction. 360,000 compounds, 0.56% hits. AID 651725. Q15475+O00167. activity change, % (concentration not given with the values). AlphaScreen GST-Six1/His-Eya2 binding, biochemical; stronger effect = lower value; control for the full effect not named in the record; in the data active = activity change below about -65%; inconclusive = about -30% to -65%; inactive = above about -30%; also: % is scaled to controls: 0 for no effect and ±100 for the full control effect
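Compounds are tested against tagged Six1 and Eya2 proteins bridged by glutathione donor and nickel acceptor beads; after a one-hour incubation at 37 °C without light, AlphaScreen emission is recorded.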
TRPV1 potentiator = enhances activation of the human vanilloid receptor TRPV1 | Q8NER1 | TRPV1-expressing cells, Fluo-8 calcium influx, capsaicin EC20 potentiation; host cell line not named in the record; control for the full effect not named in the record | potentiation, % at 8.33 µM | 320,000 compounds, 0.02% hits; active means potentiation above 80%; inconclusive means 30% to 80%; inactive means below 30%; also: 0% is about no effect
Target sequence (Q8NER1 whole entry, looked up): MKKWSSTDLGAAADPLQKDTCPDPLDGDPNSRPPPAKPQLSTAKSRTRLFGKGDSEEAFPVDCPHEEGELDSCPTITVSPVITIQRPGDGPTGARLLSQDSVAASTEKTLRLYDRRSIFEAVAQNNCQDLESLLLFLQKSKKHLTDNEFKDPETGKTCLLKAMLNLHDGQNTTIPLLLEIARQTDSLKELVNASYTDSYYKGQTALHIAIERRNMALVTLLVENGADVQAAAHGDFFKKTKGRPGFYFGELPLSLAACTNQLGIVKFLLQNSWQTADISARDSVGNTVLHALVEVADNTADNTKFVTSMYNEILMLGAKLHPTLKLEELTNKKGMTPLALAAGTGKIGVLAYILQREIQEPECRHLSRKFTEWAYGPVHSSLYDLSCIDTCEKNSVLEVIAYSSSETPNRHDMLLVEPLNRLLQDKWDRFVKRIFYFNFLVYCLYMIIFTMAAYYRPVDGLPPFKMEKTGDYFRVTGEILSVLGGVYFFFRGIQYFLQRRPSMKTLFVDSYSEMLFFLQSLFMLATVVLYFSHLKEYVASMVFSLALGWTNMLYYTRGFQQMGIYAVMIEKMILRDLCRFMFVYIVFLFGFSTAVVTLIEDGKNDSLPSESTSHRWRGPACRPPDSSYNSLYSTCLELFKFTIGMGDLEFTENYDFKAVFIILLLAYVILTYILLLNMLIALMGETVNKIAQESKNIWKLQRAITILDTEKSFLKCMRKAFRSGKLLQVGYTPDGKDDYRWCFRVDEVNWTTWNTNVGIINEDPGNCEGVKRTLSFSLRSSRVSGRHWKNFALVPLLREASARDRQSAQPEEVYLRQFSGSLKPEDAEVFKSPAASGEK
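Fluo-8 calcium influx in TRPV1-expressing cells, kinetic read (ex 480/em 520 nm). Compound added and read 3 min for agonist activity, followed by capsaicin at EC20 final and 2 min further read for enhancement.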
Sfp inh = blocks B. subtilis Sfp PPTase activity; Q9F4F7; Biochemical Sfp PPTase activity, qHTS; Potency, µM, inactives show max response, negative = inhibition, usual class: inhibitors; 310,000 compounds, 3.5% hits; AID 1490; active = well fitted inhibition curve with a large enough effect; inconclusive = small, poorly fitted or top-dose-only effect, or another doubt; inactive = no such curve, though single readings can be large or run the other way;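 also: the enzyme is Sfp with the accession as filed and its product quenches rhodamine fluorescence; potency is read from the fitted curve at half-maximal effect; 0% = enzyme reaction without inhibitor and -100% = no enzyme wells; top concentration of the series not given in the record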
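Step 1, compound plus 15 nM Sfp-PPTase, 15 min, room temperature. Step 2, add rhodamine-CoA (5 uM) and BHQ-2-YbbR (12.5 uM). Step 3, read 525/598 nm fluorescence at 0 and 30 min.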
CtBP-E1A inh = inhibitors of CtBP/E1A interaction; AlphaScreen GST-E1A/His-CtBP binding, 1536-well; stronger effect = lower value; control for the full effect not named in the record; activity change, % (test concentration not listed); 340,000 compounds, 0.49% hits; AID 651724; in the data active means activity change below about -65%; inconclusive means about -30% to -65%; inactive means above about -30%; also: % is scaled to controls: 0 for no effect and ±100 for the full control effect
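Steps: dispense buffer (Tris pH 8.0, NaCl 300 mM, TCEP 1 mM, BSA, Tween 20); add 5X protein mix (GST-E1A, His-CtBP, 125 nM each); pin 23 nL compound; 2 h at 37 °C, dark; add 5X beads (50 ug/mL); 1 h; read.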
D2 PAM = positive allosteric modulators of human D2 dopamine receptor; P14416; DiscoveRx D2 beta-arrestin cells, luminescence, 90 min; 100% = 57 uM dopamine signal; potentiation, % (test concentration not listed); 360,000 compounds, 0.23% hits; active = potentiation of 50% or more; inconclusive = 30% to 50%; inactive = 30% or less;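 also: compound concentration not given in the record; tested on top of an EC20 dose of dopamine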
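PathHunter D2 cells, attached overnight at 37 deg C, received compound in DMSO plus dopamine at EC20 (50 nM final) for 90 min at 37 deg C. Beta-arrestin recruitment was read as luminescence after 1 h with detection reagent at ambient temperature.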
PINK1 modulator = changes PINK1 expression | PINK1 immunofluorescence, high-content cytometry, 24 h | Potency, µM (highest dose often 76.6 µM), for inactives: top-dose activation (PINK1 increase), actives largely listed as activators | 410,000 compounds, 0.2% hits | AID 624263; active = well fitted activation curve with a large enough effect; inconclusive = small, poorly fitted or top-dose-only effect; inactive = flat fitted curve, though single readings scatter; cell line not stated here;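 also: potency is read from the fitted curve at half-maximal effect; % of control where 0% means no effect; nearly all actives have a fitted effect of over 65% in size; a mitochondrial uncoupler was the plate control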
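Stable cell line, 250 cells/well, 12 h attachment; compounds pinned at 5 concentrations, 24 h; CCCP control. Fixed with nuclear dye, primary antibodies 12 h at 10 degrees C, secondary plus cell stain; laser-scanning cytometer read.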
D2 ag = agonists of human D2 dopamine receptor (beta-arrestin); DiscoveRx PathHunter D2 beta-arrestin, luminescence, 90 min; 100% = 57 uM dopamine signal; activation, % (test concentration not listed); 360,000 compounds, 0.084% hits; AID 624465; in the data active = activation above about 40%; inconclusive = about 15% to 40%; inactive = below about 15%; also: compound concentration not given in the record; the text of the record calls up to 30% inactive
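DiscoveRx PathHunter D2 beta-arrestin cells (2,100/well) attached overnight, then compound-stimulated 90 min at 37 C in HBSS/10 mM HEPES/0.1% Tween-20 buffer; beta-galactosidase complementation read by luminescence after 1 h at ambient temperature. Dopamine 57 uM final (EC100) as control.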
* = called active by the depositor; & = joins results of further samples; [ ] = another dose, or the depositor's remark.

Cc1cccc(NC(=O)/C(C#N)=C/c2ccc(F)cc2)n1 was read as Six1-Eya2 inh 1, TRPV1 potentiator inconclusive, Sfp inh 3%, D2 PAM -14, PINK1 modulator 1.5% and D2 ag -8.2.
CC(C)(C)NC(=O)C(c1ccc(-c2ccccc2)cc1)N(C[C@H]1CC[C@@H]([C@@H]2CC[C@H](CO)O2)O1)C(=O)c1ccc(-c2ccccc2)cc1 (stereo not given in full) was read as Six1-Eya2 inh -14, CtBP-E1A inh -7, D2 PAM -11, PINK1 modulator 6.5% and D2 ag -0.6.
`CCOC(=O)c1nn(-c2ccc(Cl)cc2)c(C)cc1=O` gave Six1-Eya2 inh 3, TRPV1 potentiator 16, Sfp inh 19%, CtBP-E1A inh 2, D2 PAM -14, PINK1 modulator -0.4% and D2 ag -4.0.
For CCOc1cc(N2CCOCC2)c(OCC)cc1NC(=O)CN1C(=O)NC(C)(C2CC2)C1=O (stereo not given) the results were Six1-Eya2 inh -2, TRPV1 potentiator -6, Sfp inh 10%, CtBP-E1A inh -6, D2 PAM -5, PINK1 modulator 1.4% and D2 ag -7.7.
CN(C)c1ccc(CC2C(=O)Nc3ccccc32)cc1 (stereo not given) was read as Six1-Eya2 inh -10, TRPV1 potentiator -5, Sfp inh 45µM*, CtBP-E1A inh -10, D2 PAM 23, PINK1 modulator inconclusive and D2 ag inconclusive.
Screening C[C@@H]1CN([C@@H](C)CO)C(=O)c2cccc(NS(=O)(=O)c3cccs3)c2O[C@H]1CN(C)Cc1ccc(C(F)(F)F)cc1 returned Six1-Eya2 inh -3, CtBP-E1A inh -7, D2 PAM -54, PINK1 modulator 4.2% and D2 ag -0.6.
Screening CC(C)Cn1c(N)c(C(=O)COC(=O)C2CCCCC2)c(=O)n(C)c1=O returned Six1-Eya2 inh 11, TRPV1 potentiator -7, Sfp inh -13%, CtBP-E1A inh -1, D2 PAM 7, PINK1 modulator -0.7% and D2 ag -1.5.
Screening O=C(CCNC(=O)c1ccc(Br)cc1)Nc1ncccc1O returned Six1-Eya2 inh -8, CtBP-E1A inh -8, D2 PAM 6, PINK1 modulator -1.3% and D2 ag -3.6.
Screening Nc1ccc(NC(=O)NC2CCCCC2)cc1[N+](=O)[O-] returned Six1-Eya2 inh -12, TRPV1 potentiator -3, Sfp inh -3%, CtBP-E1A inh -1, D2 PAM -11, PINK1 modulator 7.3% and D2 ag -9.1.
Screening O=C(O)CNS(=O)(=O)c1ccc2c(c1)Cc1cc(S(=O)(=O)NCC(=O)O)ccc1-2 returned Six1-Eya2 inh 1, TRPV1 potentiator -7, Sfp inh -1%, CtBP-E1A inh 6, D2 PAM -2, PINK1 modulator 0.6% and D2 ag 1.7.

Sorted by molecular weight (smallest number first): some entries from above.
CN(C)c1ccc(CC2C(=O)Nc3ccccc32)cc1 (stereo not given) was read as Six1-Eya2 inh -10, TRPV1 potentiator -5, Sfp inh 45µM*, CtBP-E1A inh -10, D2 PAM 23, PINK1 modulator inconclusive and D2 ag inconclusive.
Screening O=C(O)CNS(=O)(=O)c1ccc2c(c1)Cc1cc(S(=O)(=O)NCC(=O)O)ccc1-2 returned Six1-Eya2 inh 1, TRPV1 potentiator -7, Sfp inh -1%, CtBP-E1A inh 6, D2 PAM -2, PINK1 modulator 0.6% and D2 ag 1.7.
Screening C[C@@H]1CN([C@@H](C)CO)C(=O)c2cccc(NS(=O)(=O)c3cccs3)c2O[C@H]1CN(C)Cc1ccc(C(F)(F)F)cc1 returned Six1-Eya2 inh -3, CtBP-E1A inh -7, D2 PAM -54, PINK1 modulator 4.2% and D2 ag -0.6.

Additional structures
Oc1ccc(/C=C/c2cnccn2)cc1 was read as Six1-Eya2 inh 8, TRPV1 potentiator 14, Sfp inh 12%, CtBP-E1A inh 1, D2 PAM -1, PINK1 modulator -0.8% and D2 ag 1.1.
Screening O=C1/C(=C/c2ccc(N3CCOCC3)o2)SC(=Nc2ccccc2)N1CCc1c[nH]c2ccccc12 returned Six1-Eya2 inh inconclusive, TRPV1 potentiator 28, Sfp inh 2.8µM*, CtBP-E1A inh -16, D2 PAM -6, PINK1 modulator inconclusive and D2 ag -2.0.
For Cc1nn(C(C)(C)C)c(OC(=O)C2CCCC2)c1S(=O)(=O)c1ccccc1 the results were Six1-Eya2 inh 4, TRPV1 potentiator -10, Sfp inh -8%, CtBP-E1A inh 3, D2 PAM -15, PINK1 modulator 0.5% and D2 ag -2.4.
Screening CCCCC1=CC2=CC(=O)C(C)(OC(=O)CC)C(=O)C2=CN1CCc1ccccn1 (stereo not given) returned Six1-Eya2 inh 5, TRPV1 potentiator -6, Sfp inh 11%&7%, D2 PAM -5, PINK1 modulator 0.3% and D2 ag 0.6.
CC(C)OC(=O)c1cc(C(=O)c2cc(F)ccc2O)coc1=N was read as Six1-Eya2 inh 5, TRPV1 potentiator inconclusive, Sfp inh 3%, CtBP-E1A inh -4, D2 PAM -2, PINK1 modulator -1.7% and D2 ag 2.1.
For COc1ccc(C(C(=O)NC2CCCC2)N(C(=O)c2ccoc2C)c2ccccc2)cc1 (stereo not given) the results were Six1-Eya2 inh -10, TRPV1 potentiator -2, Sfp inh 3%, D2 PAM -4, PINK1 modulator 0.5% and D2 ag -3.3.
COc1ccc(Cc2nnc(NC(=O)CSc3ccc(Cl)cc3)s2)cc1OC was read as TRPV1 potentiator 0, Sfp inh 2% and D2 ag -0.8.
For CCOc1ccc(C(=O)N(Cc2ccc(N(C)C)cc2)C2CCS(=O)(=O)C2)cc1 (stereo not given) the results were Six1-Eya2 inh -19, TRPV1 potentiator 2, Sfp inh 15%, CtBP-E1A inh -16, D2 PAM -10, PINK1 modulator -1.3% and D2 ag -2.1.
`O=S(=O)(c1ccccc1)c1cnc(-c2cccnc2)nc1-c1ccccc1` gave Six1-Eya2 inh 8, TRPV1 potentiator -6, Sfp inh 15%, CtBP-E1A inh 2, D2 PAM -1, PINK1 modulator 5.4% and D2 ag 2.7.
For CC(=O)c1ccc(NC(=O)COC(=O)c2nc(Cl)ccc2Cl)cc1 the results were Six1-Eya2 inh 0, TRPV1 potentiator 7, Sfp inh 13%, CtBP-E1A inh 15, D2 PAM 8, PINK1 modulator 3.1% and D2 ag 3.5.
For Cc1snc(S(=O)(=O)/C(C#N)=N/Nc2ccc(C(F)(F)F)cc2)c1C#N the results were Six1-Eya2 inh -10, TRPV1 potentiator -13, Sfp inh 3%, CtBP-E1A inh -2, D2 PAM -33, PINK1 modulator 12% and D2 ag -6.0.
`CCc1cc(=O)oc2c(C)c(OCC(=O)N3CCC(C(=O)O)CC3)ccc12` gave Six1-Eya2 inh 14, TRPV1 potentiator 3, Sfp inh 12%, CtBP-E1A inh 0, D2 PAM -14, PINK1 modulator 0.0% and D2 ag -3.7.
CCOc1ccc(OCc2ccc(C(=O)N3CCOCC3)cc2)cc1 was read as Six1-Eya2 inh -3, TRPV1 potentiator -9, Sfp inh 11%, CtBP-E1A inh -3, D2 PAM -22 and D2 ag 0.0.
Clc1cccc(-c2nc3c4ccccc4ccn3c2Cc2ccsc2)c1 was read as Six1-Eya2 inh 22, CtBP-E1A inh -4, D2 PAM -5, PINK1 modulator -0.1% and D2 ag -3.0.
Screening Cc1cc(C)c(S(N)(=O)=O)c(C)c1-n1cnnn1 returned Six1-Eya2 inh 5, TRPV1 potentiator -4, Sfp inh 15%, CtBP-E1A inh 5, D2 PAM 4, PINK1 modulator 12%[38.3 µM] and D2 ag 0.7.
Screening CC(Sc1nnc(CC(C)c2ccccc2)n1N)C(N)=O (stereo not given) returned Six1-Eya2 inh 2, TRPV1 potentiator -19, Sfp inh 5%, CtBP-E1A inh 5, D2 PAM -8, PINK1 modulator 2.1% and D2 ag -7.9.
CCCc1c(C(=O)Nc2cc(C(C)(C)C)on2)cnn1-c1ccccc1 was read as Six1-Eya2 inh -1, TRPV1 potentiator -18, Sfp inh 12%, D2 PAM -20, PINK1 modulator 12% and D2 ag -5.8.
`O=C1CC(SC(=Nc2ccccc2)Nc2ccccc2)C(=O)N1c1cccc(Cl)c1` (stereo not given) gave Six1-Eya2 inh -7, TRPV1 potentiator -7, Sfp inh 15%, CtBP-E1A inh 1, D2 PAM -4, PINK1 modulator 17% and D2 ag -3.0.
Screening Cn1nc(C(=O)Nc2cccc(C(=O)NC3CC3)c2)c2ccccc2c1=O returned Six1-Eya2 inh -5, TRPV1 potentiator 10, D2 PAM 5, PINK1 modulator 1.3% and D2 ag -0.6.
COc1cc2c(cc1OC)CN(c1nc(-c3cccnc3)nc3ccccc13)CC2 was read as Six1-Eya2 inh inconclusive, TRPV1 potentiator 0, Sfp inh -13%, CtBP-E1A inh inconclusive, D2 PAM 5, PINK1 modulator -1.8% and D2 ag 3.9.
O=C(NCc1ccc(F)cc1)c1cc2ccccn2n1 was read as Six1-Eya2 inh 2, TRPV1 potentiator -14, Sfp inh 10%, CtBP-E1A inh 4, D2 PAM -3, PINK1 modulator 0.8% and D2 ag 3.5.
Screening CCc1noc(C)c1C(=O)Nc1nc2ccc(OC)cc2s1 returned Six1-Eya2 inh 4, TRPV1 potentiator -8, CtBP-E1A inh -18, D2 PAM -2, PINK1 modulator 3.0% and D2 ag 1.0.
Screening CCCCCOc1ccc(C(=O)OCC(=O)Nc2cc(C)c(C)cc2[N+](=O)[O-])cc1 returned Six1-Eya2 inh 2, TRPV1 potentiator 11, Sfp inh 4%, CtBP-E1A inh -3, D2 PAM 1, PINK1 modulator 3.9% and D2 ag -1.8.
Screening CC1=C(c2ccccc2)[N+](=O)C2(CCCC2)N1[O-] returned Six1-Eya2 inh 6, TRPV1 potentiator inconclusive, Sfp inh -17%, CtBP-E1A inh -7, D2 PAM 6, PINK1 modulator -2.4% and D2 ag -0.7.
For CCOc1ccc(NC(=O)CN2C(=O)NC(CCSC)C2=O)cc1 (stereo not given) the results were Six1-Eya2 inh 0, TRPV1 potentiator 0, Sfp inh 5%, CtBP-E1A inh -3, D2 PAM 3, PINK1 modulator 0.2% and D2 ag 2.2.
`COc1cc(C(C)=O)ccc1OCC(=O)Nc1cc(C)on1` gave Six1-Eya2 inh -1, CtBP-E1A inh 19, D2 PAM 1, PINK1 modulator -0.7% and D2 ag -0.6.
COc1ccccc1C(=O)Nc1ccc2nc(SCC(=O)N(C)C)sc2c1 was read as Six1-Eya2 inh 2, TRPV1 potentiator 6, Sfp inh 21%, CtBP-E1A inh 0, D2 PAM 6, PINK1 modulator 3.5% and D2 ag 0.0.
For O=C(Nc1ccc(Br)cc1F)c1cccnc1 the results were Six1-Eya2 inh 8, TRPV1 potentiator 1, Sfp inh 4%, CtBP-E1A inh 2, D2 PAM -4, PINK1 modulator -0.5% and D2 ag -4.8.

Screening data: PubChem BioAssay, National Center for Advancing Translational Sciences (NCATS)
